# Cruzain inh noDet = cruzain (T. cruzi) inhibition without detergent | P25779 | purified cruzain, Z-FR-AMC fluorescence, no detergent | Potency, µM, for the others: max response, negative = inhibition, usual class: inhibitors | actives 2.3% (n = 200,000) | AID 1476; active = well fitted curve in the direction sought with a large enough effect; inconclusive = small, poorly fitted or top-dose-only effect, or another doubt; inactive = no such curve, though single readings can be large; an effect the other way counts as inactive or inconclusive;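 also: plate controls were enzyme without inhibitor for no effect and buffer without enzyme for full effect; nearly all actives have a fitted effect of over 40% in size; top concentration of the series not given in the record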
# Target sequence (P25779 123-467 limits assumed): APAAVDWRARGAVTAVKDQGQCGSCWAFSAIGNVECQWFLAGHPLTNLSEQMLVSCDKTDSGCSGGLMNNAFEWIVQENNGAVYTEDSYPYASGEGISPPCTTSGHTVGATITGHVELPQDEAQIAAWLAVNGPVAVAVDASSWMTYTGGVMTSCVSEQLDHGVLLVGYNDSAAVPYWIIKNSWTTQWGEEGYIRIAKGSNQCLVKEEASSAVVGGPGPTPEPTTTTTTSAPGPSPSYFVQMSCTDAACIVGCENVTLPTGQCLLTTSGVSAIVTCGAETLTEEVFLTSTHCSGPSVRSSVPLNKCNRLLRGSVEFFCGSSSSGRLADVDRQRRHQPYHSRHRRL
#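 Detergent-free condition (0.00005% Triton X-100) in acetate buffer pH 5.5 with DTT. 1.5 nM enzyme and compound were pre-mixed 15 min, then 2 uM Z-FR-AMC substrate added; reaction progress from fluorescence change between first and third reads (60 s).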
# 2A StopGo = lowers the luciferase signal of an FMDV 2A StopGo reporter | human cells with a luciferase reporter of 2A StopGo recoding; control for the full effect not named in the record | actives 1.2% (n = 410,000) | Potency, µM (highest dose often 57.9 µM), inactives show top-dose signal change, negative = less light; active = well fitted falling curve with a large enough effect; inconclusive = small, poorly fitted or top-dose-only effect; inactive = no such curve, though single readings can be large or run the other way; tested in HEK293T cells; also: % is scaled to controls: 0 for no effect and ±100 for the full control effect; nearly all actives have a fitted effect of over 45% in size; luciferase light after 4 h
# SARS PLP yeast = blocks SARS-CoV papain-like protease in a yeast assay | S. cerevisiae expressing SARS-CoV PLpro, growth rescue; control for the full effect not named in the record | Potency, µM (titrated, usually from 32.9 µM), for the others: at the top dose activity, positive = growth rescue | actives 0.19% (n = 330,000) | AID 485353; also: 0% is about no effect; nearly all actives have a fitted effect of over 55% in size; growth read by luminescence after 48 h
# NS1 function inh = inhibitors of influenza NS1 protein function; actives 0.4% (n = 270,000); Potency, µM (highest dose often 46.1 µM), for the others: at the highest dose activity, positive = more growth; S. cerevisiae slowed by influenza A NS1, growth recovery by OD600; AID 2326; also: actives are rising curves; nearly all actives have a fitted effect of over 50% in size
#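 Recovery from NS1-induced slow growth read by OD600 in budding yeast switched to galactose assay medium (pH 6.0, -URA) at 1:100 dilution. Compound 23 nl per well; the matching strain lacking NS1 serves as control.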
# Lassa entry inh = inhibitors of Lassa virus binding or cell entry; AID 540256; actives 1.2% (n = 300,000); Potency, µM (titrated, usually from 37.9 µM), without a hit: at the highest dose activity change, negative = inhibition, actives largely listed as inhibitors; Lassa virus pseudotype entry inhibition, cell reporter; control for the full effect not named in the record; active means well fitted inhibition curve with a large enough effect; inconclusive means small, poorly fitted or top-dose-only effect, or effect the other way; inactive means flat fitted curve, though single readings scatter; tested in HEK293 cells; also: % is scaled to controls: 0 for no effect and ±100 for the full control effect; nearly all actives have a fitted effect of over 50% in size; luciferase read-out
# Cruzain Triton = cruzain (T. cruzi) inhibition with detergent | P25779 | purified cruzain, Z-FR-AMC fluorescence, 0.01% Triton | Potency, µM, for the others: max response, negative = inhibition, usual class: inhibitors | actives 0.43% (n = 200,000); active = well fitted curve in the direction sought with a large enough effect; inconclusive = small, poorly fitted or top-dose-only effect, or another doubt; inactive = no such curve, though single readings can be large; an effect the other way counts as inactive or inconclusive;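 also: plate controls were neutral wells for no effect and buffer without enzyme for full effect; nearly all actives have a fitted effect of over 40% in size; top concentration of the series not given in the record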
#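 Sodium acetate buffer (100 mM, pH 5.5) containing 5 mM DTT and 0.01% Triton X-100 hosted 1.5 nM cruzain and test compound for 15 min at room temperature. Cleavage of 2 uM Z-FR-AMC was then tracked by fluorescence.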
# Marburg entry inh = blocks Marburg virus binding to or entry into cells. Marburg virus pseudotyped entry inhibition, cell reporter; control for the full effect not named in the record; about a third of the inactives were read at about 46 µM. actives 1.8% (n = 300,000). Potency, µM (titrated, usually from 37.8 µM), for inactives: at the highest dose activity change, negative = inhibition, hits mostly inhibitors; active = well fitted inhibition curve with a large enough effect; inconclusive = small, poorly fitted or top-dose-only effect, or effect the other way; inactive = flat fitted curve, though single readings scatter; tested in HEK293 cells; about a fifth of its hits are not listed in these tables; also: % is scaled to controls: 0 for no effect and ±100 for the full control effect; luciferase read-out
# RE007 growth inh = less growth of the S. pombe RE007 Vpr strain. S. pombe RE007 Vpr strain, BacTiter-Glo ATP luminescence, 24 h; control for the full effect not named in the record. Potency, µM (series often up to 92.2 µM), inactives show at the highest dose activity change, negative = less growth. actives 0.21% (n = 360,000); active = well fitted falling curve with a large enough effect; inconclusive = small, poorly fitted or top-dose-only effect; inactive = no such curve, though single readings can be large or run the other way;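 also: % is scaled to controls: 0 for no effect and ±100 for the full control effect; nearly all actives have a fitted effect of over 50% in size; the assay follows cell death caused by Vpr and the record does not say whether a fall means rescue or toxicity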
#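 Fission yeast strain RE007, carrying one chromosomally integrated HIV-1 vpr copy, was seeded at OD 0.01 in PMG+AL medium with 23 nL pinned compound. After 24 h at 30 °C and 99% humidity, viability was read by BacTiter-Glo luminescence.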
# * marks the source's active call; other numbers are inactive results; ? = inconclusive; nt = no result given; & = joins results of further samples; [ ] = another dose, or the depositor's remark. Unless noted, calls follow the shape of the dose curve; as a rule, active means well fitted rising curve with a large enough effect; inconclusive means small, poorly fitted or top-dose-only effect; inactive means no such curve, though single readings can be large or run the other way. Potency is read from the fitted curve at half-maximal effect.
SMILES	Cruzain inh noDet	2A StopGo	SARS PLP yeast	NS1 function inh	Lassa entry inh	Cruzain Triton	Marburg entry inh	RE007 growth inh
C=C1C(=O)OC2C1C(OC(=O)C(C)=CC)CC(=C)C1C(O)C3OC3(C)C21O (stereo not drawn)	nt	28µM*	nt	nt	-15%[46.1 µM]	nt	-23%	13%
CN1CCN(C(=O)/C(=C/c2cccs2)NC(=O)c2ccco2)CC1	nt	2%	0%	1%	2%[46.1 µM]	nt	13%[46.1 µM]	12%
O=C(CSc1n[nH]c(C2CCCC2)n1)NC1CCCC1	3%	7%	-2%	3%	-4%	1.0%	5%	15%
CC1(C)Cc2c(sc3ncnc(N)c23)CO1	4%	3%	0%	3%	-1%	-3.7%	-11%	10%
Cc1cccnc1NC(=O)c1ccccc1NC(=O)C(C)(C)C	10%	4%	14%	-3%	16%	2.9%	-10%[46.1 µM]	-1%
N/C(=N\OC(=O)c1cc(-c2ccccc2)nc2ccccc12)c1ccc(Cl)cc1	?	-5%	-1%	0%	-8%	3.0%	5%	-13%
Cc1cc(C)cc(NC(N)=S)c1	9%	-19%	?	5%	1%	0.4%	23%	6%
COc1ccc(Nc2ccc3c(c2)=NC2(CCCCC2)[N+]=3[O-])cc1	3%	?	-23%	-60%	?	-13%	?	?
CC(C)N(Cc1cnn(C)c1)Cc1nc(-c2ccc(Cl)cc2)no1	nt	-20%	-1%	-6%	nt	nt	nt	-3%
CCOc1cc(CN2CCN(C(=O)Cc3ccccc3)CC2)ccc1OC	nt	6%	3%	-7%	nt	nt	nt	-17%
CCCC1(C(=O)OCC)NC(c2cc(OC)c(OC)c(OC)c2)C2C(=O)N(CC)C(=O)C21 (stereo not drawn)	10%	-19%	-5%	1%	-21%	3.8%	10%	13%
COc1ccc(OCC(=O)NCCS(=O)(=O)N2CCN(c3ccc(F)cc3)CC2)cc1	nt	-11%	-1%	-4%	-13%[46.1 µM]	nt	-1%[46.1 µM]	-1%
COc1ccc(CNC(=O)CN(c2ccc(C(C)=O)cc2)S(=O)(=O)c2ccc(C)cc2)cc1OC	nt	7%	-10%	nt	-26%	nt	?	-3%
Cc1ccc(NC(=O)c2oc3ccc(S(=O)(=O)N(C)C4CCCCC4)cc3c2C)cc1Cl	-12%	-11%	nt	nt	3%[46.1 µM]	0.7%	nt	nt
CCCCCCCNc1cccc(C)c1	nt	19%	1%	0%	2%	nt	11%	-14%
CC1(C)N([O-])c2cc([N+](=O)[O-])ccc2[N+]1=O	nt	-20%	-3%	0%	nt	nt	nt	1%
NC(=O)c1cc(S(=O)(=O)N2CCCCC2)cs1	-5%	-21%&4%	-6%	6%	17%[46.1 µM]	0.0%	nt	-4%
COc1ccccc1C/C(N)=N/OC(=O)COc1ccc(C)cc1	-10%	-21%	6%	?	nt	-7.2%	-3%	0%
Cn1nccc1C(=O)OCC(=O)Nc1ccc(S(N)(=O)=O)cc1	nt	-6%	7%	-7%	15%	nt	-1%[46.1 µM]	7%
CCN1CCN(C(=S)Nc2ccc3nc4n(c(=O)c3c2)CCCCC4)CC1	nt	-26%	-9%	-5%	-25%[46.1 µM]	nt	-9%[46.1 µM]	-8%
O=C(O)CC(NC(=O)C1CCCCC1)c1ccc(OC2CCCC2)cc1 (stereo not drawn)	nt	0%	0%	nt	6%	nt	13%[46.1 µM]	17%
O=C(NC1CC1)c1cccc(NC(=O)c2cnn(-c3ccccc3)n2)c1	nt	-33%	-2%	nt	?	nt	?	0%
CCOC(=O)c1csc(NC(=O)CC2CCCC2)n1	nt	18%	0%	nt	0%	nt	-2%	12%
CC(C)(C)SCCNC(=O)c1ccccc1	-9%	19%	2%	0%	?	1.1%	-4%	4%
COc1ccc(S(=O)(=O)Nc2ccc(-n3cnnn3)cc2)cc1Br	nt	12%	-2%	nt	-14%	nt	12%[46.1 µM]	-8%
O=C(Nc1ccon1)c1cccc(S(=O)(=O)N2CCCCCC2)c1	2%	-1%	8%	-11%	8%	-1.2%	-17%	12%
CCCS(=O)(=O)N1CCN(CC2CC=CCC2)CC1 (stereo not drawn)	0%	-5%	9%	-4%	6%	2.5%	-6%	-3%
CN(CC(=O)Nc1ccccn1)S(=O)(=O)c1ccc(Cl)cc1	10%	-2%	9%	-1%	-4%	4.1%	-4%[46.1 µM]	5%
COc1ccc(S(=O)(=O)N2CCCCC2)cc1NC(=O)c1ccc2c(c1)OCO2	-3%	-8%	17%	6%	-3%	-5.5%	6%	22%
O=c1[nH]c(=O)n(Cc2ccco2)c2c1C(C(F)(F)F)(C(F)(F)F)N=C(C1CCCCC1)N2	4%	-17%	8%	5%	-8%	3.9%	3%	-8%
CCCn1c(SCc2cc(=O)[nH]c3ccccc23)nc2c1c(=O)n(C)c(=O)n2C	0%	8%	4%	-1%	0%	0.0%	-13%	7%
O=C(Nc1ccc2c(c1)OCO2)N1CCN(c2ccccc2)CC1	nt	7%	0%	6%	nt	nt	nt	2%
O=c1[nH]c(/C=C/c2ccc(Br)cc2)nc2ccccc12	nt	46%[activator]	0%	-2%	nt	nt	nt	2%
CC(C(=O)Nc1ccccc1Br)c1ccc([N+](=O)[O-])cc1 (stereo not drawn)	6%	-20%	?	3%	nt	-4.4%	4%	25%
CCN(CC)S(=O)(=O)c1ccc(N/N=C/c2ccc(O)cc2)nc1	nt	13%	-1%	-2%	3%[46.1 µM]	nt	?	11%
CC(C)(C)C(=O)Nc1ccc(-c2cn3ccsc3n2)cc1	0%	-68%	-4%	-59%	?	-0.4%	?	-12%
CCc1ccc2[nH]c(C(=O)Nc3ccc4c(c3)OCO4)cc2c1	nt	16%	-1%	15%	15%[46.1 µM]	nt	23%[46.1 µM]	10%
CCN(CCN(C)C)C(=O)C1CCN(S(=O)(=O)c2c(C)noc2/C=C/c2ccccc2F)CC1	18%	-4%&-10%	-4%	-3%	?	-5.6%	nt	-7%
COc1ccc(CCC(C)NCc2ccc(F)cc2)cc1 (stereo not drawn)	nt	3%	-1%	-14%	nt	nt	nt	0%
CN(C)c1c([N+](=O)[O-])cc2[nH]c(=O)[nH]c2c1[N+](=O)[O-]	-16%	4%	-3%	8%	10%	-2.1%	-2%	15%
Cc1cc(Br)c(OCc2ccc(C(=O)N/N=C3\CC(=O)CC(C)(C)C3)cc2)c(Br)c1	10µM*	-1%	?	9%	?	-1.0%	3%	18%
CCc1cccc(CC)c1NC(=S)NCc1nc2ccccc2[nH]1	nt	17%	-2%	-3%	nt	nt	-6%[46.1 µM]	2%
Cn1c(N)c(C(=O)COC(=O)c2cc3ccccc3cc2O)c(=O)n(C)c1=O	nt	-18%	-1%	nt	3%	nt	?	-7%
CCn1c(C)[n+](Cc2ccccc2)c2ccc(C(=O)OC)cc21	nt	-18%	3%	nt	-20%	nt	3%[46.1 µM]	16%
Cc1ccsc1/C=N/NC(=O)c1ccccn1	-14%	-13%	-33%	-9%	?	-8.7%	?	?
CC1N=C2c3ccccc3N=C(SCC(=O)NCCc3ccc(Cl)cc3)N2C1=O (stereo not drawn)	-8%	7%	nt	nt	15%[46.1 µM]	-3.4%	nt	nt
COc1ccc(CCNC(=O)CCNC(=O)N2CC(=O)Nc3ccccc32)cc1	nt	-9%	6%	6%	0%[46.1 µM]	nt	-18%[46.1 µM]	9%
Cc1ccc(S(=O)(=O)N2CCC(C(=O)N3CCC[C@H]3C(=O)NC3CCS(=O)(=O)C3)CC2)cc1 (stereo partly drawn)	-1%	6%	5%	0%	?	1.5%	-13%	1%
CCOC(=O)c1cnc2cc3c(cn2c1=O)CCCC3	-12%	10%	2%	-7%	-21%	-6.1%	?	-2%
Oc1ccc(O)c2c1C1(Cl)C(Cl)=C(Cl)C2(Cl)C1(Cl)Cl	nt	?	nt	nt	1%[46.1 µM]	nt	?	-25%
Cc1nc(-n2nnc3ccccc32)c2c3c(sc2n1)CCCC3	10%	-25%	1%	-41%	1%	-5.0%	-18%	6%
CCCCCCn1nc(C(=O)OCC(=O)c2c(N)n(C)c(=O)n(C)c2=O)c2ccccc2c1=O	nt	?	0%	nt	?	nt	?	-13%
Cc1sc(NC(=O)c2ccco2)c(C(c2ccccc2)N2CCC(C)CC2)c1C (stereo not drawn)	nt	?	3%	nt	?	nt	?	-17%
CC(C)Cc1nnc(NC(=O)CCC(=O)Nc2ccc3cn[nH]c3c2)s1	nt	-7%	0%	6%	nt	nt	nt	-13%
CC1CN(S(=O)(=O)c2cc(C(=O)NCCCN3CCCC3=O)ccc2Cl)CC(C)O1 (stereo not drawn)	nt	?	-5%	nt	2%	nt	2.2µM*	-9%
CN1CCCN(C2C3CC4CC(C3)CC2C4)CC1 (stereo not drawn)	-3%	-19%	-24%	1%	?	2.1%	?	-23%
COc1cc(/C=N/N2CCN(c3ccccc3OC)CC2)ccc1O	10%	65%[activator]	-1%	3%	9%	-7.3%	?	-10%
Cc1nc(N)c(C#N)c(-c2ccccc2)c1C	-10%	-22%	-2%	-6%	1%	6.9%	-12%[46.1 µM]	21%
O=C(N/N=C\c1cc2c(cc1Cl)OCO2)c1cccnc1	nt	17%	2%	15%	-3%[46.1 µM]	nt	13%[46.1 µM]	5%
O=C(NCSC1=NCCS1)c1ccccc1	-12%	10%	5%	5%	3%	1.3%	2%	6%
CCCCSC1(SCCCC)N=C(N)C2(C#N)C(c3ccccc3)NC(C)=C(C)C12C#N (stereo not drawn)	?	-10%	2%	8%	3%	3.2%	?	-18%
CC1CN(C(=O)CCC(=O)NCCCN2CCC(Cc3ccccc3)CC2)c2cc(Cl)ccc2O1 (stereo not drawn)	nt	?	0%	5%	?	nt	11µM*	-1%

# Compounds were not picked by outcome. About 4.6% of those tested had a hit in this group.
